Assay outcomes as filed in PubChem.
TRPML1 ag – human mucolipin-1 channel agonism; actives 0.12% (n = 410,000); activation, % (concentration not given with the values); Q9GZU1; AID 624414; TRPML1-expressing cells, Ca2+ dye fluorescence, FDSS; host cell line not named in the record; reference of the full effect not given here; in the data active = activation above about 50%; inconclusive = about 30% to 50%; inactive = below about 30%; note: 0% is about no effect; the text of the record puts the active cut at 80%
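Calcium fluorescence on an FDSS kinetic reader gave the read-out. Tet-induced TRPML1-DL cells were plated overnight, dye-loaded (Ca8 with quencher, 45-90 min, room temperature, dark), then read 110 s after compound addition, and again 110 s after 4uM final 54-4 (EC80).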
PINK1 modulator – PINK1 expression modulation | PINK1 immunofluorescence, high-content cytometry, 24 h | Potency, µM (highest dose often 76.6 µM), inactives show top-dose activation (PINK1 increase), hits mostly activators | actives 0.2% (n = 410,000); active = well fitted activation curve with a large enough effect; inconclusive = small, poorly fitted or top-dose-only effect; inactive = flat fitted curve, though single readings scatter; cell line not stated here;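 note: potency is the fitted concentration of half-maximal effect; % of control where 0% means no effect; nearly all actives have a fitted effect of over 65% in size; a mitochondrial uncoupler was the plate control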
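Stable cell line treated 24 h with compounds at 5 concentrations (CCCP controls), then fixed and immunostained for PINK1 plus nuclear and cell stains; PINK1 immunofluorescence quantified by laser-scanning microplate cytometry.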
CtBP-E1A blk – inhibitors of CtBP/E1A interaction. actives 0.49% (n = 340,000). activity change, % (no concentration beside the values). AID 651724. AlphaScreen GST-E1A/His-CtBP binding, 1536-well; hits give low values; control for the full effect not named in the record; in the data active means activity change below about -65%; inconclusive means about -30% to -65%; inactive means above about -30%; note: % is set by controls: 0 for no effect and ±100 for the full control effect; compound concentration not given in the record
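GST-E1A and His-tagged CtBP (125 nM each as 5X stock) were preincubated with pin-transferred compound for 2 h at 37 °C in the dark, then glutathione donor and nickel acceptor beads were added for 1 h before AlphaScreen reading.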
TRPML1 inh – inhibitors of human TRPML1 channel; Q9GZU1; TRPML1-inducible cells, Ca2+ dye fluorescence, FDSS; hits give low values; inhibition of EC80 agonist-evoked calcium signal; activity change, negative = inhibition, % (test concentration not listed); actives 0.02% (n = 390,000); AID 624415; in the data active means activity change below about -50%; inconclusive means about -30% to -50%; inactive means above about -30%;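 note: stimulus is agonist 54-4 at its EC80 concentration; % is set by controls: 0 for no effect and ±100 for the full control effect; compound concentration not given in the record; the text of the record puts the active cut at -80%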
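Calcium fluorescence in TRPML1-DL cells induced overnight with Tet: a 110 s read after compound pin addition, then a 110 s antagonist read after challenge with 54-4 at 4 uM final (EC80).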
Six1-Eya2 inh – blocks human Six1 binding to Eya2. Q15475+O00167. AlphaScreen GST-Six1/His-Eya2 binding, biochemical; hits give low values; control for the full effect not named in the record. activity change, % (concentration not given with the values). actives 0.56% (n = 360,000). AID 651725; in the data active = activity change below about -65%; inconclusive = about -30% to -65%; inactive = above about -30%; note: % is set by controls: 0 for no effect and ±100 for the full control effect
Target sequence (O00167 whole entry, looked up): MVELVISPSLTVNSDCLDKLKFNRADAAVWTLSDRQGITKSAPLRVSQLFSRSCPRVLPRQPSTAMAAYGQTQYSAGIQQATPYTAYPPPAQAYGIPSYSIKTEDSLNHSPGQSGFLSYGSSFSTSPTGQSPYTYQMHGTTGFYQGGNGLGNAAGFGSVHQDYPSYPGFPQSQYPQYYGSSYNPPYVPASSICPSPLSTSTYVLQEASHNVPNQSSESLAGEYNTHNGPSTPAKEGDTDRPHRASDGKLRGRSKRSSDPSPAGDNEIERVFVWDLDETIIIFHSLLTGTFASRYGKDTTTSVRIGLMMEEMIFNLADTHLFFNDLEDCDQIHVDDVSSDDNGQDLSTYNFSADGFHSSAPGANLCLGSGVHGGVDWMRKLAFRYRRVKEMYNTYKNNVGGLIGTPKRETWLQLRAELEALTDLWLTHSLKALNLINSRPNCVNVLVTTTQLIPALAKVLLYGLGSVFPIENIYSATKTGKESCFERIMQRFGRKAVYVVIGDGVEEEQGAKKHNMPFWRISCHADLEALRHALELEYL
Target sequence (Q15475 whole entry, looked up): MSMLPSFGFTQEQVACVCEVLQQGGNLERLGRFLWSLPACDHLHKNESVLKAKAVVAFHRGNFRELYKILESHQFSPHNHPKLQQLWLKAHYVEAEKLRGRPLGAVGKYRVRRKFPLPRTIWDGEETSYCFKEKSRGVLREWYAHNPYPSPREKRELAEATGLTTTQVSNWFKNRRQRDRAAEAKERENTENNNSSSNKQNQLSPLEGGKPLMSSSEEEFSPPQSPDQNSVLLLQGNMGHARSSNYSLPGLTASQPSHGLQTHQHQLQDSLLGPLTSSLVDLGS
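GST-Six1 + His-Eya2 (5X stock: 250/500 nM); Tris pH 8.0, 300 mM NaCl, 0.05% BSA, 0.02% Tween 20; GSH donor/Ni acceptor beads; 1 h 37 °C dark; AlphaScreen readout.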
D2 agonist – activates the human D2 dopamine receptor; DiscoveRx PathHunter D2 beta-arrestin, luminescence, 90 min; 100% = 57 uM dopamine signal; activation, % (test concentration not listed); actives 0.084% (n = 360,000); AID 624465; in the data active = activation above about 40%; inconclusive = about 15% to 40%; inactive = below about 15%; note: compound concentration not given in the record; the text of the record calls up to 30% inactive
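Agonist mode: compounds alone added to overnight-plated D2 PathHunter cells for 90 min at 37 C, with 57 uM final dopamine (EC100) defining full response. Beta-arrestin recruitment detected by chemiluminescent reagent, read after 1 h at ambient temperature.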
Starred values were filed as active, the others as inactive; u = inconclusive; x = not tested or not shown; & = joins results of further samples; [ ] = dose if it differs, or a comment.

SMILES	TRPML1 ag	PINK1 modulator	CtBP-E1A blk	TRPML1 inh	Six1-Eya2 inh	D2 agonist
O=C1C(Cc2ccccc2)C(c2ccccc2)N1c1ccccc1 (stereo not drawn)	3.3	0.6%	9	-5	17	-2.8
COc1ccc(C(=O)NCC(=O)NCC(=O)OCC(=O)c2ccc(C)cc2)cc1	-0.4	0.4%	9	-16	-2	-2.9
Cc1cc(C(=O)CN2C(=O)C(=O)N(Cc3ccco3)C2=O)c(C)n1CCc1ccc(F)cc1	3.8	1.5%	-5	21	-17	2.6
COC(=O)C(C)n1cnc2c(cnn2-c2ccc(Cl)cc2)c1=O (stereo not drawn)	-0.4	-0.3%	-1	-11	0	-11
CCCCN([C@H](CO)C(C)C)S(=O)(=O)c1ccccc1Br	-0.8	1.3%	4	-3	5	-0.5
Nc1nnc(CC(=O)N/N=C/c2ccc(-c3ccccc3Cl)o2)s1	0.7	-0.1%	u	1	u	-3.8
Cn1cnc(S(=O)(=O)Nc2ccccc2N2CCOCC2)c1	-0.6	0.0%	5	1	9	-0.5
O=C(NCCC1CCCCN1S(=O)(=O)c1ccccc1)C(=O)NCc1ccncc1 (stereo not drawn)	0.2	-0.3%	-14	-5	24	0.1
COc1ccc(-n2ncc3c2ncn2nc(COc4ccc(Cl)cc4)nc32)cc1	1.7	2.1%	x	-3	x	x
COc1ccc(CNCc2ccccc2C(F)(F)F)cc1	1.0	5.4%	-1	-13	14	-4.3
O=C(NCc1cccs1)c1ccc(Cn2c(SCc3ccc(F)cc3)nc3cccnc32)cc1	1.0	3.6%	x	-4	x	x
Cc1ccccc1CN1CCN(CC(=O)NC(C)c2ccccc2)CC1 (stereo not drawn)	0.1	-1.7%	2	-5	3	-1.3
O=C(O)/C=C(/c1ccccc1)C(F)(F)F	x	-0.5%	-3	x	-15	-5.6
O=c1oc(-c2cccc([N+](=O)[O-])c2)nc2ccccc12	0.2	-1.8%	5	-7	-22	-7.2
Cc1ccc(C2CC(=O)n3nc(-c4ccc(F)cc4)nc3S2)cc1 (stereo not drawn)	-0.5	4.7%	x	7	x	x
O=C(CCc1nnc2ccc(N3CCCCC3)nn12)NCC1CCN(Cc2ccc(F)cc2)CC1	-1.0	0.1%	-7	-20	3	-7.7
COc1cc(/C=N/Nc2ccccc2C(F)(F)F)ccc1O	0.2	1.8%	0	15	-2	0.3
COc1ccc(Br)cc1CN1CCN(C(=O)c2ccc(OC)c(OC)c2)CC1	0.8	3.2%	-4	-10	-6	-0.4
COC(=O)[C@@]1(Cc2ccc(OC)cc2)[C@@H]2C(=CC(=O)[C@H]2CC(=O)C(=O)N(C)C)CN1C(=O)c1ccccc1	0.0	0.8%	x	4	-6	-2.2
Cc1ccc(N2C(=O)[C@@H]3CSC(c4ccc(Cl)cc4)N3C2=O)cc1 (stereo partly drawn)	0.7	-0.6%	x	-4	x	x
O=c1[nH]nc(-c2ccc(F)cc2)cc1Cc1cccs1	1.0	-0.1%	0	11	7	-5.2
S=C1N(c2ccccc2)C(c2ccc(Br)cc2)N2CCCN12 (stereo not drawn)	1.6	1.2%	-5	4	1	1.5
Cc1cc(C)n(-c2nc(C)c(C)c(=O)n2CC(=O)Nc2ccc(OC(F)(F)F)cc2)n1	0.5	1.0%	x	14	x	x
CC(C)N1CC2(CC(c3ccccc3C(F)(F)F)=NO2)CN1C(=O)c1ccco1 (stereo not drawn)	3.2	-2.3%	0	21	11	-0.9
O=C(CSc1nnc(Cc2ccccc2)o1)NC1CCCCC1	0.2	-2.3%[38.3 µM]	-12	-2	-1	0.0
O=C(NC(=S)Nc1cccc(Cl)c1N1CCOCC1)c1cccs1	0.3	3.9%	x	11	-9	-8.1
O=C(COc1ccc(F)cc1)Nc1nnc(-c2ccncc2)s1	-0.6	1.5%	-5	29	-2	5.4
Cc1ccc(CNC(=O)CCCc2nnc3n(C)c(=O)c4sccc4n23)cc1	0.8	-0.7%	x	-12	x	x
COc1ccccc1C(=O)N/N=C(\C)c1ccc(NC(=O)C2CC2)cc1	0.6	7.0%	0	-6	-3	-5.7
O=S(=O)(/N=C(\Nc1ccc(F)cc1)C(F)(F)F)c1ccccc1	0.8	3.2%[38.3 µM]	3	-14	6	0.2
COCC(C)n1c(COc2ccccc2F)nnc1SCC(=O)Nc1oc(C)c2c(C)n[nH]c(=O)c12 (stereo not drawn)	0.3	-1.0%	1	12	-2	-5.7
C=CCOc1ccc(/C=C/C(=O)OCC(=O)NCc2ccco2)cc1	3.0	-0.1%	5	3	2	-0.4
COc1cc2c(cc1OC)C1Cc3ccc(OC)c(OC)c3C[N+]1([O-])CC2 (stereo not drawn)	-0.5	0.8%	6	5	9	-1.3
Cc1ccc(CNC(=O)COC(=O)c2ccc(S(=O)(=O)N3CCCCCC3)cc2)cc1	-0.3	5.4%	0	-8	10	4.7
O=C(NCC1CC1)C1(C(F)(F)F)CC(CCc2ccccc2)CCCO1 (stereo not drawn)	1.5&0.9	1.6%	31	73&10	29	-1.5
Cc1ccc(S(=O)(=O)N(CC(=O)Nc2ccc(C)c(Cl)c2)C(=O)N2CCN(C)CC2)cc1	-0.4	4.5%	12	3	-1	-2.1
NC(=NC(=O)c1ccc(OC(F)(F)F)cc1)c1ccc(C(F)(F)F)cn1	-0.2	2.6%	8	23	2	-4.6
Cc1ccc(/C=N/N2C(=O)C3C(C2=O)C2C=CC3C23CC3)o1 (stereo not drawn)	-0.4	x	13	6	0	-3.6
Cc1ccc(Nc2ncnc3sccc23)c(C)c1	3.2	0.3%	-21	2	14	-3.1
Cc1cc(C)nc(SCc2nc3ccccc3n2C)n1	0.8	-0.8%	-1	-5	2	-1.1
Cc1c(Cl)cccc1NC(=O)C(C)n1c(=O)cc(-c2ccccc2)c2c(C)nn(C)c21 (stereo not drawn)	0.5	1.3%	x	9	x	x
O=C(C[C@H]1C/C=C\C[C@@H](Cc2ccc(F)cc2)C(=O)O[C@@H](c2ccccc2)CNC1=O)NCCO	0.0	0.0%	x	-26	1	-2.9
Cc1ccc(CNC(=O)C2CC(=O)N(C3CCCCCCC3)C2)cc1 (stereo not drawn)	-1.3	1.4%	-12	-2	9	-3.4
COc1ccc(S(=O)(=O)N(C)C[C@H]2OCCCC[C@@H](C)Oc3ccc(N(C)C)cc3C(=O)N([C@H](C)CO)C[C@@H]2C)cc1	-0.5	0.3%	-8	-12	-11	-8.5
COc1ccc(C2C(C#N)=C(N)OC3=C2C(=O)CCC3)cc1Cn1nc(C)c([N+](=O)[O-])c1C (stereo not drawn)	2.0	0.0%	1	5	4	0.1
COc1ccccc1OCc1cc(C(=O)NCCN2CCCC(O)C2)no1 (stereo not drawn)	-0.2	1.4%	-3	34	4	2.4
Cc1ccc(C(=O)OCC(=O)NNC(=O)c2ccccc2)c(O)c1	-0.4	1.1%	3	2	8	-6.8
Cc1nc(CN2CCOCC2)cc(=O)[nH]1	-0.6	-2.4%	2	27	1	-2.0
Cc1ccc(-c2cc(C(F)(F)F)n3nc(C(=O)Nc4sc5c(c4C#N)CCC(C)C5)cc3n2)cc1 (stereo not drawn)	-0.5	2.0%	x	-3	x	x
COc1ccc(C=C(c2nc3ccccc3s2)c2nc3ccccc3s2)cc1O	-0.2	-0.4%	3	-13	-25	-11
CC(=O)Nc1cc(-c2ccc(CO)cc2)cn2c(-c3cccc(C(F)(F)F)c3)cnc12	-0.5	5.3%	-9	x	-6	-5.7
COc1cccc(C=Nc2cc(C(C)C)c(O)cc2C)c1O	0.4	-1.9%	u	-12	-8	13
Cn1cnc(S(=O)(=O)Nc2ccccc2C(=O)NCC2CC2)c1	0.7	3.8%	-7	16	-2	-0.4
CCCN1CCC(=O)N([C@H](CSc2ccccc2)CC(C)C)CC1	-0.2&-0.5	1.4%	1	30	-8	-0.1
O=C1CCCN2N=C(SCC(=O)Nc3cccc(F)c3)SC2=N1	0.3	1.6%	0	-3	2	-1.8
O=c1oc(-c2cccs2)nc2ccccc12	-0.9	4.4%	-6	-15	-7	-4.8
COC(=O)c1cc(=O)nc(NN=Cc2ccco2)s1	-1.0	1.5%	1	x	-4	-5.1
Cc1ccsc1/C=N/NC(=O)CNC(=O)c1c(F)cccc1Cl	-0.9	4.8%	-6	-11	-3	-0.4
CSc1ccccc1-c1nnc(-c2ccccc2)o1	-0.4	4.2%	-2	-11	18	-3.0
Cc1ccc(NC2CC(=O)N(CCc3ccccc3)C2=O)cc1 (stereo not drawn)	0.4	u	5	3	-5	1.5

Additional compounds follow.
SMILES	TRPML1 ag	PINK1 modulator	CtBP-E1A blk	TRPML1 inh	Six1-Eya2 inh	D2 agonist
CN(C)S(=O)(=O)c1cccc(NC(=O)COC(=O)c2cc(=O)[nH]c(=O)[nH]2)c1	1.1	0.3%	3	28	-1	-3.9
O=C(CCNS(=O)(=O)c1cccc(Cl)c1)OCC(=O)N1CCN(C(=O)c2ccco2)CC1	0.0	0.5%	-4	2	5	-2.3
COc1ccc(CN(C)C(=O)C(Cc2ccccc2)NC(=O)c2ccccc2)c(OC)c1 (stereo not drawn)	3.2	-4.9%	-17	-3	-1	5.3
Cc1ccc(C(=O)NCC(c2ccco2)S(=O)(=O)c2cccs2)cc1C (stereo not drawn)	1.1	0.0%	x	14	x	x
Cc1ccc(Cn2c(CN3CCOCC3)nc3c2c(=O)[nH]c(=O)n3C)cc1	0.4	5.3%[38.3 µM]	42	0	24	-1.6
Cc1ccc(C(CC(=O)O)NC(=O)CCNC(=O)c2ccco2)cc1 (stereo not drawn)	3.5	-3.6%	-14	-1	-2	4.3
CCN1C(=O)[C@H]2[C@@H](c3ccc(-c4ccc5c(c4)OCO5)cc3)N[C@@](Cc3ccccc3)(C(=O)OC)[C@H]2C1=O	1.5	-0.7%	-15	-4	1	-0.6
Cc1ccc(C(=O)Nc2ccccc2N2CCCCC2)cc1[N+](=O)[O-]	3.0	0.9%	x	27	-3	2.8

Profiles, quoted from the list. Values in the order: TRPML1 ag | PINK1 modulator | CtBP-E1A blk | TRPML1 inh | Six1-Eya2 inh | D2 agonist
COc1ccc(CN(C)C(=O)C(Cc2ccccc2)NC(=O)c2ccccc2)c(OC)c1 (stereo not drawn) reads 3.2 | -4.9% | -17 | -3 | -1 | 5.3
Cc1ccc(Cn2c(CN3CCOCC3)nc3c2c(=O)[nH]c(=O)n3C)cc1 reads 0.4 | 5.3%[38.3 µM] | 42 | 0 | 24 | -1.6
Cc1ccc(C(CC(=O)O)NC(=O)CCNC(=O)c2ccco2)cc1 (stereo not drawn) reads 3.5 | -3.6% | -14 | -1 | -2 | 4.3
CN(C)S(=O)(=O)c1cccc(NC(=O)COC(=O)c2cc(=O)[nH]c(=O)[nH]2)c1 reads 1.1 | 0.3% | 3 | 28 | -1 | -3.9
O=C(CCNS(=O)(=O)c1cccc(Cl)c1)OCC(=O)N1CCN(C(=O)c2ccco2)CC1 reads 0.0 | 0.5% | -4 | 2 | 5 | -2.3
